Bioassay records: PubChem BioAssay, ICCB-Longwood Screening Facility, Harvard Medical School
MgrA-DNA mod: modulators of Staphylococcus aureus MgrA DNA binding | fluorescence polarization | inhibition, %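 (about 10 µg/mL by stock and volumes)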 | 84,000 tested, 0.13% active | AID 602314;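 active means above 50% in either of two replicates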;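 further: 0% = protein plus DNA without compound and 100% = DNA alone without protein; higher means less MgrA bound to DNA so lower polarization; one replicate is shown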
Sa helicase inh: S. aureus DNA helicase inhibition; purified S. aureus helicase, fluorescence unwinding assay; about half of the hits fall short of the stated cut; inhibition, %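 (tested at about 80 µM)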; 120,000 tested, 0.05% active;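 active means both duplicates at 50% or more, or one of them with a favoured structure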;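 further: 0% = mean of negative control wells and 100% = mean of positive control wells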
An asterisk follows results filed as active; . = no result given. Only part of the results is shown (hit frequency here may not be typical).

SMILES	MgrA-DNA mod	Sa helicase inh
O=C1CCCN1CCNC(=S)Nc1ccccc1	0.1	6
COc1cc(NC(=O)Cn2cnc([N+](=O)[O-])n2)cc([N+](=O)[O-])c1	0.6	.
CCc1cc(SC/C(O)=C(\C#N)c2nc3ccccc3[nH]2)n2c(nc3ccccc32)c1C#N	.	-5
Cc1oc(CSCCSCc2cc(C(=O)O)c(C)o2)cc1C(=O)O	3.8	20
COC(=O)Cn1cc(C(=O)c2ccco2)c2ccccc21	.	4
CCNC(=O)C1CN(S(=O)(=O)c2ccccc2)CCN1S(=O)(=O)c1ccccc1 (stereo not drawn)	-0.8	17
O=C(CC1SC(=NC2CC2)NC1=O)Nc1cc(C(F)(F)F)ccc1Cl (stereo not drawn)	.	-3
O=C1CN(C(=O)c2ccccc2)C(=O)CN1C(=O)c1ccccc1	3.6	4
S=C1C=C(N2CCCCC2)CC(c2ccc(Cl)cc2)S1 (stereo not drawn)	-1.0	.
CC(NCc1ccc(F)cc1)C12CC3CC(CC(C3)C1)C2 (stereo not drawn)	0.6	15
COc1cc(SC)ccc1C(=O)OCC(=O)N(C)C1(C#N)CCCCC1	.	-3
CCN(c1ncnc2nc[nH]c12)C1CCCCC1	.	14
COc1ccc(C=Nc2ccc(C(C)(C)C)cc2)cc1	-0.1	.
Cc1nc(-c2ccc(S(=O)(=O)N3CCCN(CCc4ccccc4)CC3)s2)cs1	.	-2
OCC1OC(Oc2ccc(O)cc2)C(O)C(O)C1O (stereo not drawn)	.	14
C=CC[N+]1(CC=C)CCOCC1	0.0	8
CN(CCc1ccccn1)c1ncnc2sccc12	.	9
Cn1c(=O)c2c(nc3n2Cc2c(Cl)cccc2N3CCNC(=O)C2CCC2)n(C)c1=O	-0.5	-2
CCCCCn1c(-c2ccccc2)nc2ccccc21	.	-7
CC(=O)Nc1ccc(SCC(=O)NC(=O)NC2CCCCC2)cc1	.	37
COCCOC(=O)C1=C(C)NC(C)=C(C(=O)OCCOC)C1c1ccc(-c2ccc(Cl)cc2Cl)o1	2.1	.
CC1CCCCN1C(=O)c1ccccc1NC(=O)c1ccco1 (stereo not drawn)	-0.8	-1
Cc1cccn2cc(CNC(=O)C(C)(C)C)nc12	0.9	10
COc1cccc2cc(C(N)=O)/c(=N/NS(=O)(=O)c3ccc(C)cc3)oc12	.	-42
Cc1ccc(NC(=O)c2ccco2)nc1	2.5	5
The list goes on.
SMILES	MgrA-DNA mod	Sa helicase inh
Cc1nc(NC2=NCN(Cc3ccccc3)CN2)nc2ccccc12	0.4	14
CN(Cc1cccs1)C(=O)Cc1c[nH]c2ccccc12	.	-16
C#CCOC(=O)Nc1c(-c2ccccc2)noc1C	.	-17
CCOC(=O)c1sc(-c2ccccc2)nc1OC	0.2	.
CCCS(=O)(=O)c1csc(C(=O)OC)c1-n1cccc1	-1.8	.
CC1CC(C)(C)NC(=S)N1CC(=O)N1CCN(Cc2ccccc2)CC1 (stereo not drawn)	.	-18
Cc1ccc(S(=O)(=O)N(C)C(F)F)cc1	-0.9	-3
O=C(CN1CCN(Cc2ccc3c(c2)OCO3)CC1)N1c2ccccc2CCc2ccccc21	1.0	-7
O=C(Nc1ccccc1)c1ccc2c(c1)OCCO2	-5.1	9
O=C(CSCCCn1c(=O)[nH]c2ccccc21)N1CCc2ccccc21	.	-7
CCN(CC(=O)Nc1ccc(C#N)cc1)CC(=O)Nc1ccc2c(c1)OCCO2	.	1
O=C1CC(CSc2nccc(-c3cccnc3)n2)=NN1c1ccc(Cl)cc1	3.8	.
COCSC1=NC(c2ccc(SC)cc2)C(C(=O)OC(C)C)=C(C)N1 (stereo not drawn)	.	9
CCOC(=O)N1CCC(N2C(=O)c3ccc(C(=O)Nc4ccc(OC)cc4)cc3C2=O)CC1	.	-28
Cn1ccnc1C(=O)c1cc(=S)[nH]c2ccccc12	.	-18
CC(C(=O)Nc1ccc(C#N)cc1)N1CCN(c2ccc(O)cc2)CC1 (stereo not drawn)	.	-6
N#Cc1c(Nc2ccccc2C(F)(F)F)s[nH]c1=O	16	.
Cc1noc(C)c1C(=O)n1cc2c(n1)-c1cc(F)ccc1SC2	-0.7	.
Cc1[nH]c(-c2ccc(F)cc2)cc1C(=O)NC1CCCCC1	0.2	6
CC(C)C(=O)N1CCN(c2nc3ccccc3o2)CC1	.	9
CC(=O)OC1CCC(OC(C)=O)c2c1n([O-])c(C)c(C)[n+]2=O (stereo not drawn)	1.4	7
O=C(/C=C/c1ccccn1)NC(Cc1c[nH]c2ccccc12)C(=O)O (stereo not drawn)	0.3	-12
Cc1c(C)n(CC(O)CNCc2ccccc2)c2ccccc12 (stereo not drawn)	2.8	0
COCCn1c(-c2ccccc2)nc(=S)c2c1CCCC2	.	-21
Cc1cc(C)n(-c2nnc3c(n2)[nH]c2ccccc23)n1	0.7	-21
Next section
SMILES	MgrA-DNA mod	Sa helicase inh
O=C(NCc1ccc(S(=O)(=O)N2CCOCC2)s1)c1ccc(Cl)cc1	-1.3	.
CCN1C(=S)SC(=O)C1=C1C=C(C)OC(C)=C1	.	-7
Cc1ccc(CSc2n[nH]c(-c3ccccc3O)n2)cc1	0.2	-5
COC(=O)CNC(=O)c1cc2cc(Cl)ccc2oc1=O	0.9	6
CC(C)Sc1nc2c(c(=O)n1-c1ccc(F)cc1)SCC2	.	-3
O=S(=O)(c1ccc(Cl)cc1)n1nccc1-c1cc(-c2ccccc2)no1	-1.1	.
O=[N+]([O-])c1cccnc1Oc1ccc(F)cc1	-2.3	.
O=C1N/C(=N/N=C\c2ccco2)SC1Cc1cccc(C(F)(F)F)c1 (stereo not drawn)	1.5	-1
O=C(CN1C(=O)c2ccccc2S1(=O)=O)c1ccc2c(c1)OCCCO2	0.3	.
COc1ccc(C2C(C(=O)NC(C)C)c3ccccc3C(=O)N2Cc2ccc(F)cc2)cc1 (stereo not drawn)	1.6	7
COC(=O)C1=C(C)N(Cc2cccnc2)C(=O)/C1=C\c1ccc(OC)cc1OC	0.6	0
CSc1ccc(C=C2C(=O)OC3(CCCCC3)OC2=O)cc1	-1.8	3
O=C(CCCN1C(=O)c2cccc3cccc(c23)C1=O)N1CCN(Cc2ccc3c(c2)OCO3)CC1	-1.7	.
O=C(CN1C(=O)CCSc2ccccc21)NCCCc1ccccc1	.	17
COc1ccc(CNC(=O)CSc2nc(C)cc(=O)[nH]2)cc1	.	6
C=CCOC(=O)C1=C(C)NC(SC)=C(C#N)C1c1ccccc1OC (stereo not drawn)	.	6
CCCC1(CCC)NC(=O)N(Cn2nnc3ccccc3c2=O)C1=O	.	7
CCOC(=O)CN=C1NC(=O)C(c2ccccc2)(c2ccccc2)N1	.	12
O=S(=O)(Cc1ccc(-c2csnn2)cc1)c1ccc(Cl)cc1	2.5	.
CC(Sc1nc2cc(Cl)ccc2c(=O)n1C1CCCCC1)C(=O)NC(N)=O (stereo not drawn)	.	-9
CC1=CCC(C(=O)O)C(C(=O)NC2CCCCC2)C1 (stereo not drawn)	3.4	9
Cc1ccsc1CNC(=O)CCC(=O)O	-2.9	.
CCC(C(=O)Nc1c2c(nn1-c1ccc(F)cc1)CSC2)c1ccccc1 (stereo not drawn)	.	0
COc1cccc(OC)c1C(=O)NCc1ccco1	.	8
CCOC(=O)C1=C(C)N=C(SC)N(C(C)=O)C1c1ccccc1 (stereo not drawn)	.	-6

Whole records as entered above. Order of screens: MgrA-DNA mod | Sa helicase inh
`O=C1CC(CSc2nccc(-c3cccnc3)n2)=NN1c1ccc(Cl)cc1` is entered as 3.8 | .
`COc1ccc(CNC(=O)CSc2nc(C)cc(=O)[nH]2)cc1` is entered as . | 6

New compounds follow
SMILES	MgrA-DNA mod	Sa helicase inh
Cc1nn(-c2ccccc2)c2c1C(c1cccnc1)C1=C(CC(C)(C)CC1=O)N2 (stereo not drawn)	-5.3	.
COC(=O)Nc1ccc(Cl)cn1	.	10
COc1cccc(C=C2C(=O)N(C)C(=S)N(C)C2=O)c1OC	18	2
CCOc1ccc(Nc2nc3ccccc3nc2Nc2ccc(OCC)cc2)cc1	1.4	.
COc1cc(-c2cc(C(=O)O)c3cc(Br)ccc3n2)cc(OC)c1OC	.	3
O=C(Nc1ccccc1-c1nc2ccccc2[nH]1)c1ccc(S(=O)(=O)N2CCCCC2)cc1	-0.8	.
O=C1/C(=C\c2cccs2)SC(=S)N1CC(=O)N(Cc1ccccc1)c1ccccc1	.	-18
Cc1ccc2c(c1)-c1c(cnn1CC(=O)Nc1ccc3c(C)cc(=O)oc3c1)CO2	.	-16
CN1CCN(CCOc2ccccc2)CC1	-0.5	-1
O=C(CN1CCN(c2ncnc3sc(-c4ccccc4)cc23)CC1)N1CCCC1	.	3
CC1Cc2ccccc2N1c1ccc2ccccc2n1 (stereo not drawn)	.	-21
CN(Cc1ccco1)C(=O)c1ccc(N2CCCS2(=O)=O)cc1	.	-11
O=S1(=O)C=C(Sc2nc3cc(Cl)ccc3o2)c2ccccc21	.	2
O=C(Nc1ccc(C2SCCS2)cc1)c1ccccc1	0.2	.
CCN(CC)c1ccc(C2C3=C(CC(c4ccc(OC)cc4)CC3=O)Nc3ccccc3N2C(C)=O)cc1 (stereo not drawn)	-0.3	.
CN1C(=O)/C(=C2\SC(=O)N(Cc3ccccc3)C2=O)c2cc(Br)ccc21	4.0	.
Cc1csc2nc(CSc3ccc(S(=O)(=O)N4CCOCC4)cn3)cc(=O)n12	.	6
Cc1nn(Cc2ccccc2Cl)c(C)c1CN(C)Cc1cc(=O)n2c3c(sc2n1)CCCC3	.	-11
c1ccc(-n2nnnc2NCC2CCCCC2)cc1	.	-4
Cc1cc(C)c2c(n1)nn1c(C3CC3)cc(C(F)(F)F)nc21	-2.4	6
CCN1C(=O)c2ccc(-c3nc4cc(Cl)ccc4c(=O)o3)cc2C1=O	-1.3	6
O=C(NC1CCN(Cc2ccccc2)CC1)c1cncc(Br)c1	.	-4
COc1cc(SC)c(OC)cc1SC	-1.0	.
O=C(N/C=C/c1ccsc1)Nc1cc(C(F)(F)F)cc(C(F)(F)F)c1	5.0	.
Cc1ccc2c(n1)sc1c(=O)n(CCc3ccccc3)nnc12	.	-7
The listing continues.
SMILES	MgrA-DNA mod	Sa helicase inh
CC1CCCCN1C(=O)CSc1nnc(-c2ccccc2)n1-c1ccccc1 (stereo not drawn)	.	8
c1ccc(-c2cc(NC3CCCC3)n3cnnc3n2)cc1	.	0
COc1ccccc1NC(=O)C(F)(F)C(=O)Nc1ccccc1OC	-0.8	6
Cn1c(C2=C(O)CN(c3ccccc3)C2=N)nc2ccccc21	1.0	3
Cc1ccc2nc(-c3ccccn3)cc(C(=O)NCc3cnn(C)c3)c2c1	1.3	-8
COc1ccccc1NCC(O)COc1ccc(Cl)cc1Cl (stereo not drawn)	.	-18
CCC1(CC)COC2(OC1)C(=O)Nc1ccccc12	-1.5	.
O=c1oc(-c2ccccc2F)nc2ccccc12	2.7	.
CCOC(=O)N1CCC(N/C=C(\C#N)S(=O)(=O)c2cccnc2)CC1	-1.7	.
O=S1(=O)CC(O)C(S(=O)(=O)Cc2cccc(C(F)(F)F)c2)C1 (stereo not drawn)	-0.1	.
Cc1nc2nc(NC(=O)C(c3ccccc3)c3ccccc3)[nH]n2c(=O)c1C	1.1	-8
CC1(C)CC(=O)C(C2C3=C(CC(C)(C)CC3=O)Oc3ccc(Br)cc32)=C(O)C1 (stereo not drawn)	0.5	10
CC(=O)Nc1c(C(C)(C)C)nn2c(C)cc(C(F)(F)F)nc12	-1.8	.
CN(Cc1ccccc1)C(=O)C1CCCN(c2ncnc3onc(-c4ccc(F)cc4)c23)C1 (stereo not drawn)	.	-11
CC(Oc1ccc(Cl)cc1)C(=O)NCc1ccco1 (stereo not drawn)	0.3	-13
CC(=O)Nc1ccc(N=CC2=C(O)CC(C)(C)CC2=O)cc1	.	6
CN(/N=C/c1cc(Cl)cc(Cl)c1O)c1ccc([N+](=O)[O-])cn1	0.2	.
COc1ccc(NC(=O)c2ccc3oc(=O)c(S(=O)(=O)c4ccccc4)cc3c2)cc1	0.6	-1
O=C1CN(Cc2ccccc2)CC(=O)N1	.	26
Cc1nc2ccc(S(=O)(=O)N(C)CC(=O)NCc3ccc4c(c3)OCO4)cc2s1	.	5
NC1=NC(=O)C(CC(=O)c2ccc(Cl)cc2)S1 (stereo not drawn)	.	7
Fc1ccc(Nc2nc3nonc3nc2Nc2ccccc2F)cc1	.	17
COc1cccc(/C=N/NC(=O)CC#N)c1OC	-0.5	.
CC(Oc1ccc2ccc(=O)oc2c1)C(=O)O (stereo not drawn)	.	19
CCC(=O)Nc1ccccc1C(=O)N1CCCCC1	0.3	4
Nc1ccc(OCc2ccccc2)cc1	-0.7	-4

In the list so far, these have an NH in an aromatic ring.
SMILES	MgrA-DNA mod	Sa helicase inh
CCc1cc(SC/C(O)=C(\C#N)c2nc3ccccc3[nH]2)n2c(nc3ccccc32)c1C#N	.	-5
CCN(c1ncnc2nc[nH]c12)C1CCCCC1	.	14
CN(Cc1cccs1)C(=O)Cc1c[nH]c2ccccc12	.	-16
O=C(CSCCCn1c(=O)[nH]c2ccccc21)N1CCc2ccccc21	.	-7
Cn1ccnc1C(=O)c1cc(=S)[nH]c2ccccc12	.	-18
N#Cc1c(Nc2ccccc2C(F)(F)F)s[nH]c1=O	16	.
Cc1[nH]c(-c2ccc(F)cc2)cc1C(=O)NC1CCCCC1	0.2	6
O=C(/C=C/c1ccccn1)NC(Cc1c[nH]c2ccccc12)C(=O)O (stereo not drawn)	0.3	-12
Cc1cc(C)n(-c2nnc3c(n2)[nH]c2ccccc23)n1	0.7	-21
Cc1ccc(CSc2n[nH]c(-c3ccccc3O)n2)cc1	0.2	-5
COc1ccc(CNC(=O)CSc2nc(C)cc(=O)[nH]2)cc1	.	6
O=C(Nc1ccccc1-c1nc2ccccc2[nH]1)c1ccc(S(=O)(=O)N2CCCCC2)cc1	-0.8	.
Cc1nc2nc(NC(=O)C(c3ccccc3)c3ccccc3)[nH]n2c(=O)c1C	1.1	-8
